CapD inh – CapD enzyme inhibition; actives 0.23% (n = 140,000); z-score (no concentration beside the values); purified CapD enzyme, fluorescence intensity read-out; active compounds read low; some hits fall short of the stated cut;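 active = z-score under -4 in either of two replicates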;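 also: stock transfer was 100 nL into about 40 µL; score is relative to mean and spread of the plate; one replicate is shown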
AID504770 – growth inhibitors of E. coli YBA685 in a screen for V. cholerae RctB (chromosome II replication) inhibitors | AID 504770 | actives 0.27% (n = 130,000) | z-score (test concentration not listed) | E. coli YBA685 rctB-dependent plasmid, OD600 growth, 3 h; active compounds read low;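 active = z-score under -2 on both plates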;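 also: wells of about 30 µL received 100 nL stock; score is relative to mean and SD of the test wells; the first replicate is given; strong numbers were not always called active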
* hit, by the source's call; / = no result given; & = joins results of further samples.

SMILES	CapD inh	AID504770
Cc1c(C)n(CC(O)CNC2CCCCC2)c2ccccc12 (stereo not given)	-0.86	2.4
Cn1ncc(C#N)c1/N=C/N(Cc1ccccc1)Cc1ccccc1	-0.18	-0.4
COc1ccc(N2CCN(Cc3nc4nc(C)cc(C)n4c3Br)CC2)cc1	7	-1.1
COC(=O)CCc1c(C)c(C(=O)c2ccco2)c2ccccn12	/	-1.3
CC(=O)NCc1ccc(C(=O)CSc2nnc(C)n2Cc2ccccc2)o1	/	1.8
O=C(NCc1ccccc1)c1ccc2c(c1)N(Cc1ccccc1)C(=O)c1ccccc1S2=O (stereo not given)	-0.17	-1
O=C(NCCSc1c(-c2ccccc2)[nH]c2ccccc12)c1ccc(N2C(=O)CCC2=O)cc1	0.83	-0.2
CC1c2nc3ccccc3n2C(CC(=O)NC2CC2)C(=O)N1Cc1ccccc1 (stereo not given)	0.42	-1.9
O=C(CN1C(=O)c2ccccc2S1(=O)=O)N1CCN(c2cccc(Cl)c2)CC1	0.21	-0.35
Oc1ccc(C=NCC2CCCN3CCCCC23)c(O)c1 (stereo not given)	-1.3	1.2
O=C1CCC(C(=O)O)NC(=O)N1 (stereo not given)	/	-0.7
O=S(=O)(NCc1ccncc1)c1ccc(Cl)cc1	0.085	/
O=C(c1cnn(S(=O)(=O)c2ccccc2)c1)c1cc(Cl)ccc1O	/	0.25
Cc1cc(C)nc(SCC(N)=O)n1	/	-0.75
Nc1nc(-c2cccs2)cc(C(F)(F)F)n1	68	/
CCc1nn(CC(=O)NCCN2CCN(c3cccc(C)c3C)CC2)c(=O)c2cc3sccc3n12	-0.44	-0.45
CC(NC(=O)C1COc2ccccc2O1)c1ccccc1F (stereo not given)	/	1.4
Fc1ccc(N2CCN(c3ccc(F)cc3)C2c2ccc(Br)cc2)cc1	0.59	/
CC1CC(C)CN(CCC(=O)Nc2ccccc2)C1 (stereo not given)	0.92	-0.85
C/C(=N\OC(=O)c1ccc(Cl)cc1)c1sc(-c2ccccc2)nc1C	0.08	/
Cc1ccc2cccc(OC(=O)c3ccc(C)c(C)c3)c2n1	-1.2	-0.05
CC(C)NC(=O)c1ccc(COCC(F)(F)C(F)F)o1	0.025	-0.6
CCOC(=O)/C=C1\SCC(=O)N1CC(=O)Nc1cc(C(F)(F)F)ccc1N1CCOCC1	/	-0.25
COC(=O)c1cc(C#N)c(SCC#N)nc1C(OC)OC	10	-0.1
FC(F)(F)c1cnc(SCc2ncc(-c3ccccc3)o2)c(Cl)c1	/	2.2
Fc1ccccc1C1N(Cc2ccccc2)CCCN1Cc1ccccc1	25	-0.5
CCOc1ccc(Oc2cc(C)nc(SC)n2)nn1	-0.43	0.5
Cc1nccn1-c1ccc(C(F)(F)F)cn1	-0.67	-1.1
CC(C)=CCCC(C)N1CC23C=CC(O2)C(C(=O)O)C3C1=O (stereo not given)	-0.11	-2
Cc1nc(-c2c(C(F)(F)F)oc3cc(O)ccc3c2=O)cs1	-0.18	-0.5

Retrieved one by one from the entries so far, seven records:
SMILES	CapD inh	AID504770
CCc1nn(CC(=O)NCCN2CCN(c3cccc(C)c3C)CC2)c(=O)c2cc3sccc3n12	-0.44	-0.45
Cc1ccc2cccc(OC(=O)c3ccc(C)c(C)c3)c2n1	-1.2	-0.05
CC1CC(C)CN(CCC(=O)Nc2ccccc2)C1 (stereo not given)	0.92	-0.85
Cc1nccn1-c1ccc(C(F)(F)F)cn1	-0.67	-1.1
CCOC(=O)/C=C1\SCC(=O)N1CC(=O)Nc1cc(C(F)(F)F)ccc1N1CCOCC1	/	-0.25
Cc1nc(-c2c(C(F)(F)F)oc3cc(O)ccc3c2=O)cs1	-0.18	-0.5
Fc1ccccc1C1N(Cc2ccccc2)CCCN1Cc1ccccc1	25	-0.5

Going on with the list.
SMILES	CapD inh	AID504770
ONC=NCc1ccccc1OC(F)(F)F	0.76	-0.5
CCCn1c(=O)c2ccccc2n2c(SCC(=O)/C(C#N)=C(\C)N)nnc12	/	0.9
CCOC(=O)N1CCN(C(=O)C(NS(=O)(=O)c2cccc3nsnc23)c2ccccc2)CC1 (stereo not given)	-0.24	0.6
Cc1ccccc1OCc1nc2ccccc2c(=O)n1N	-0.21	-0.65
CCOC(=O)C1CCCCN1C(=O)CCc1c(C)nc2cc(-c3ccc(OC)cc3OC)nn2c1C (stereo not given)	11	-0.1
CCn1c(COC(=O)/C=C/c2ccc(Br)o2)nc2cc(S(=O)(=O)N(C)C)ccc21	/	-0.7
Cc1ccc(C(=O)N2CCC(C(=O)NC3CCCC3)CC2)cc1	1	1.8
CN(CCc1ccccn1)S(=O)(=O)c1cccc(Cl)c1	0.98	1.8
CC(C)C(NC(=O)c1c(F)cccc1F)C(=O)N1CCN(S(=O)(=O)c2ccc(F)cc2)CC1 (stereo not given)	/	0
O=C(Cc1noc2ccccc12)NCc1cccc(Cl)c1	-0.38	1.5
CC(C)(C)NC(=O)CN1C(=O)S/C(=C\c2ccccc2)C1=O	-0.26	0.95
Cc1nsc(N)c1C(=O)OCc1ccc(C#N)cc1	/	-0.45
COc1cccc(CNC(=O)c2cc(C(C)C)[nH]n2)c1	-0.86	-0.65
O=C(COC(=O)c1ccccn1)NC12CC3CC(CC(C3)C1)C2	0.03	-0.55
CCOc1ccc2nc(-n3c(C)ccc3C)sc2c1	0.015	1.9

Copied from the list:
`CC(C)(C)NC(=O)CN1C(=O)S/C(=C\c2ccccc2)C1=O` – AID504770: 0.95
`CCn1c(COC(=O)/C=C/c2ccc(Br)o2)nc2cc(S(=O)(=O)N(C)C)ccc21` – AID504770: -0.7
`Cc1ccc(C(=O)N2CCC(C(=O)NC3CCCC3)CC2)cc1` – AID504770: 1.8
`CCOC(=O)C1CCCCN1C(=O)CCc1c(C)nc2cc(-c3ccc(OC)cc3OC)nn2c1C` (stereo not given) – AID504770: -0.1
`CCOC(=O)N1CCN(C(=O)C(NS(=O)(=O)c2cccc3nsnc23)c2ccccc2)CC1` (stereo not given) – AID504770: 0.6

Later entries.
SMILES	CapD inh	AID504770
COC(=O)c1cc(S(=O)(=O)NCCc2ccccc2)cn1C	0.96	0.25
COc1ccc(Cl)cc1NC(=O)CSc1nc2ccccc2n1S(=O)(=O)c1ccc(NC(C)=O)cc1	0.15	/
CCCCN(Cc1ccco1)C(=O)c1cc2c(=O)oc3ccc(C)cc3c2s1	59	-0.65
Cc1ccccc1N(CC(=O)Nc1sccc1C#N)S(C)(=O)=O	/	-0.5
Cn1c(=O)c2sccc2n2c(CCCC(=O)Nc3ccccc3)nnc12	0.37	-0.8
O=C(OC(c1ccc2c(c1)OCO2)c1nccc2ccccc12)c1ccco1 (stereo not given)	/	1
CN(C)CCCN1c2ccccc2CCc2ccccc21	-0.4&0.095	0.05
N#CC(/C(=N/S(=O)(=O)c1cccs1)c1ccccc1)c1nnc(N2CCOCC2)n1-c1ccccc1 (stereo not given)	/	0.3
Cc1cc(C)nc(SCC(=O)OCC(=O)N2CCN(c3ccccc3)CC2)n1	/	-0.1
O=C(CCN1C(=O)/C(=C/c2cccc(Br)c2)SC1=S)Nc1ccccn1	-0.12	/
CCOc1cccc(/C=C2/SC(=Nc3ccccc3Cl)NC2=O)c1O	-1.7	/
Cc1ccn2c(CO)c(-c3ccccc3)nc2c1	30	-0.25
Nc1cc(-c2ccc(I)cc2)[nH]n1	0.18	0.2
O=C(O)c1ccc2c3c(cccc13)CC2	67	-0.1
Cc1cccc2cc(CN(C(=O)C3CC3)C3CCCC3)c3nnnn3c12	/	-0.5
Cc1nc2c(-c3ccccc3)c(C)nn2c(C)c1CC(=O)NC(C)CCc1ccco1 (stereo not given)	0.19	-0.7
O=C(NC1CC1)c1ccc2c(c1)N(Cc1ccccc1)C(=O)CS2=O (stereo not given)	-0.59	1.1
O=C(CC1CCCCC1)N1CCOCC1	/	-0.1
COC(=O)C1=C(C)NC2=C(C(=O)CC(c3ccccc3)C2)C1c1cc(Br)c(O)c(OC)c1 (stereo not given)	11	/
CCCc1oc2c(cc(NS(=O)(=O)c3cc(C)ccc3C)c3ccccc32)c1C(=O)OCC	0.41	/
COC(=O)C(OC)c1cc(C(C)(C)C)c(O)c(C(C)(C)C)c1 (stereo not given)	-0.49	-1.1
CCOC(=O)c1ncoc1-c1ccc(Cl)cc1Cl	1.3	-0.6
CC(=O)SC1CC(=O)N(c2ccc(C(C)(C)C)cc2)C1=O (stereo not given)	-0.16	0.7
CCCC(C)C1C(C#N)=C(N)Oc2cc(N)ccc21 (stereo not given)	/	0.6
CC(C)c1nn2cc(-c3ccc(Br)cc3)nc2s1	-0.38	0.95
O=C(CSc1nc2sccc2c(=O)n1-c1ccccc1)N1CCCC1	/	-1
COC(=O)c1c(C)nc(C)c2c(=O)oc3ccccc3c12	1.2	0.8
CSc1ccc(/C=C2/SC(=O)N(CNc3ccccc3)C2=O)cc1	-0.13	-0.15
COc1cccc2c1oc(=O)c1c(NC(C)=O)nc(-c3ccccc3)nc12	-0.39	0.65
CCCc1c(C)nc2c(C)cccc2c1SCCC(=O)O	-0.6	0.15

Shown bar-delimited: 4 of the compounds above.
SMILES | CapD inh | AID504770
FC(F)(F)c1cnc(SCc2ncc(-c3ccccc3)o2)c(Cl)c1 | / | 2.2
Fc1ccccc1C1N(Cc2ccccc2)CCCN1Cc1ccccc1 | 25 | -0.5
CCOc1ccc(Oc2cc(C)nc(SC)n2)nn1 | -0.43 | 0.5
Cc1nccn1-c1ccc(C(F)(F)F)cn1 | -0.67 | -1.1

Next entries
SMILES	CapD inh	AID504770
CCC(NC(=O)Nc1cc(C)ccc1OC)c1c(-n2cccc2)sc2c1CCN(C)C2 (stereo not given)	0.34	-1.2
COc1ccc(NC(=O)Cn2c3ccccc3c(=O)c3cc(C)ccc32)cc1Cl	0.58	/
Cc1cc(N=NC(=O)c2ccccc2)ccc1O	/	-2.2
CCOc1cc(C2Nc3ccccc3NC3=C2C(=O)CC(c2ccc(OC)cc2)C3)cc(Cl)c1O (stereo not given)	-1.2	/
CC(C)NC(=O)c1ccc2ccccc2n1	1.1	-0.15
COc1ccc(-n2c(CC#N)nnc2SCc2c(C)c(C)c(C)c(C)c2C)cc1	0.11	-0.35
O=C(COC(=O)c1ccco1)NC12CC3CC(CC(C3)C1)C2	-0.8	-0.65
CCOC(=O)C1CCN(CC(O)COc2cccc(C)c2)CC1 (stereo not given)	-0.25	-0.7
O=C(O)CCCNc1n[nH]c(=O)[nH]c1=O	0.03	0.1
O=C(COc1ccccc1)NCc1nc2ccccc2[nH]1	/	0.55
Cc1ccccc1N=Cc1c(O)[nH]c2ccccc12	-0.97	0
CSc1sc(C)cc1C1C(C(=O)Nc2cccc(C(F)(F)F)c2)=C(C)NC2=C1C(=O)CCC2 (stereo not given)	9.4	/
Cc1cc(C(=O)Nc2nc3c(s2)Cc2ccccc2-3)no1	0.28	0.9
Cc1c(Cl)cccc1NC(=O)CC(NCCN1CCOCC1)C(=O)O (stereo not given)	/	0.05
CCN(Cc1ccccc1)C(=O)CSc1nc2nc(C)cc(C)n2n1	-0.055	0
COc1ccc(C(O)C(Nc2ccccc2)c2nc3ccccc3n2C)cc1 (stereo not given)	-0.2	0.05
CN1CCN(C(=O)CN2C(=O)/C(=C/c3ccccc3)Sc3ccccc32)CC1	4.3	0
COc1ccc(CC(=O)NNC(=O)OCC(F)F)c(OC)c1	-0.86	/
O=C(N/N=C/c1ccc([N+](=O)[O-])o1)c1ccc(OC(F)(F)F)cc1	-0.58	/
CC(Nc1nc(Nc2ccc(F)cc2)nc(SCC(=O)Nc2ccc(F)cc2)n1)c1ccccc1 (stereo not given)	-0.39	-0.8
Cc1cccc(NC(=O)C(C)C(=O)c2ccccc2)c1 (stereo not given)	-0.24	2
CCN(CC)c1nc(N)c2c(N)n(-c3ccccc3C)c(=S)c(C#N)c2c1C#N	/	0
CC(C)S(=O)(=O)c1csc(C(=O)N/N=C/C(C)(C)C)c1-n1cccc1	0.56	-0.15
c1ccc(CCc2ccccn2)nc1	0.095	0.35
COCCNC(=S)c1ccc(N(C)C)cc1	-4.9*	-0.35
Cc1cc(N2CCC(C(=O)Nc3cccnc3Cl)CC2)n2nc(C)c(-c3ccc(Cl)cc3)c2n1	-0.2	-0.5
Cc1cc(C)n(-c2nc3ccccc3nc2Nc2ccc(CC(=O)O)cc2)n1	-0.73	-0.35
N#Cc1cnc(Sc2nnc(-c3ccco3)n2-c2ccccc2)nc1N	1.1	-0.55
COC(=O)C(Cc1c[nH]c2ccccc12)NC(=O)c1cc2c(n(-c3ccc(OC)cc3)c1=O)CC(C)(C)CC2=O (stereo not given)	-0.91	/
O=C(/C=C/c1ccccc1)N(c1ccccn1)C1CCCCC1	-0.005	1.6

In another format: 2 of the compounds above.
smiles,CapD inh,AID504770
c1ccc(CCc2ccccn2)nc1,0.095,0.35
COCCNC(=S)c1ccc(N(C)C)cc1,-4.9*,-0.35

New compounds follow.
SMILES	CapD inh	AID504770
CC(C)(C)N1C(=O)NC(=O)/C(=C\c2cn(Cc3ccccc3)c3ccccc23)C1=O	-0.12	0.3
Cc1ccc(N2N=NC3CCC(C4=CCCC4)C32N2CCOCC2)cc1C (stereo not given)	/	-0.45
CCOC(=O)c1c(C)nn(-c2ncccc2C(F)(F)F)c1C	0.45	1.3
CCOc1cc(C(=O)NC(=S)Nc2cccc(-c3ccc(CO)o3)c2)cc(OCC)c1OCC	-0.81	0.4
CCCNC(=O)N1c2ccc(F)cc2CCC1C (stereo not given)	/	-0.55
Clc1ccc(-c2nnc(-c3ccc(Cl)cc3)o2)cc1	-0.39	-0.8
CCC(=O)Nc1ccccc1N1CCCC1	0.05	-1.1
C=C1CC2(C)C(=CC1=O)CCC1C2CCC2(C)C(OC(=O)OCC)CCC12 (stereo not given)	-0.88	0.65
O=C(NC(=S)N1CCCCC1)c1ccccc1	0.03	1.7
CCCNC(=O)C12CC3CC(CC(C3)C1)C2	-0.17	-0.95
CC(C)N1C(=O)/C(=C/c2cccc(Cl)c2Cl)SC1=S	-0.52	1.4
CCOC(=O)c1c(-c2ccc(C)cc2)csc1/N=C/c1nc(-c2ccco2)oc1O	-0.15	/
CCOC(=O)c1[nH]c(COC(=O)C2CC(=O)N(Cc3ccccc3)C2)c(C(=O)OCC)c1C (stereo not given)	/	-0.3
